MT1-MMP act inh – blockers of MT1-MMP proenzyme processing, primary screen, HT1080 RFP-PRO-GFP cells, GFP/RFP fluorescence | GFP/RFP ratio fluorescence, overnight; percent of plate control window, DMSO zero | GFP/RFP ratio change, % at 20 µM | actives 0.061% (n = 360,000);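 active = GFP/RFP ratio change of at least 30% with cell ATP level not reduced by more than half and red fluorescence within 50% of control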; also: strong numbers were not always called active
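Assay system – RFP-PRO-GFP reporter HT1080 cells · Compound dosing – single dose of 20 µM compound, 1% DMSO final · Incubation – overnight compound exposure at 37 °C · Measure – GFP/RFP fluorescence ratio · Benchmarks – DMSO wells and RFP-L50D-GFP cells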
Yeast UUG start – modulators of yeast start codon fidelity, primary screen, whole organism, S. cerevisiae, single point, plate reader | AID 602363, 2012 | S. cerevisiae UUG-firefly luciferase reporter, luminescence/redox ratio | actives 0.13% (n = 350,000) | activity score, % at 18.7 µM;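 active = replicate mean at a twofold rise or more, about +100% in these data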;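 also: firefly luciferase made from a UUG start codon reports start codon fidelity; reporter light over untreated wells divided by growth signal over untreated wells; some hits fall short of that in this replicate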
MT1-MMP act inh RFP – second read-out of MT1-MMP act inh, no call of its own (marks repeat the call); RFP signal change, %; measured here: RFP expression control read;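 0 = vehicle wells; hits needed this value within 50% of zero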
* hit, by the source's call; & = joins results of further samples.

The line under a structure holds: MT1-MMP act inh, MT1-MMP act inh RFP, Yeast UUG start
1: CC(=O)OCC1OC(OC2C[C@]3(C)C(CC(O)C4C([C@](C)(CCC=C(C)C)OC5OC(CO)C(O)C(O)C5O)CC[C@]43C)[C@@]3(C)CCC(O)C(C)(C)C23)C(O[C@@H]2OC(C)C(O)C(O)C2O)C(O)C1O (stereo not given in full)
  -2, -2, 0
2: O=C(O)c1cc(N2CCCCC2)nc2ccccc12
  -5, 3, -2
3: NC(=O)C1CN(C(=O)c2nn(Cc3ccccc3)c(=O)c3ccccc23)c2ccccc2O1 (stereo not given)
  1, 7, -9
4: O=C(C[C@H]1C[C@H](C(=O)N2CCCCC2)[C@@]2(CCc3ccccc3)c3[nH]c4ccc(Cl)cc4c3CCN2C1=O)NCCc1ccccn1
  -30, -39, -10
5: CCOC(=O)C1=C(COC(=O)c2cc([N+](=O)[O-])ccc2Cl)NC(=O)NC1C (stereo not given)
  1, 3, -10
6: Cc1cccc(C(=O)OCC(=O)NCC2CCCO2)c1O (stereo not given)
  -4, 1, -10
7: CCOc1ccc(C(=O)NCC(=O)NNC(=O)CN(C)S(=O)(=O)c2ccc(Cl)cc2)cc1OCC
  3, 3, 0
8: Cc1noc(C)c1S(=O)(=O)N(C)C[C@H]1OCc2cn(nn2)CCCC(=O)N([C@@H](C)CO)C[C@@H]1C
  2, 4, -19&0
9: COCCNC(=O)C1CCCN(C(=O)c2ccc3sccc3c2)CC1 (stereo not given)
  5, -3, -3
10: COc1ccc(C(CNC(=O)c2ccc(NS(=O)(=O)c3ccc(F)c(C)c3)cc2)N2CCCC2)cc1 (stereo not given)
  0, 0, 7
11: Cc1ccc(NC(=C(C#N)C#N)c2ccccc2)cc1
  -1, -10, -4
12: CCOC(=O)N(C)C[C@H]1OCc2cnnn2CCCC(=O)N([C@@H](C)CO)C[C@H]1C
  2, 4, -12&-10
13: CC(Sc1nnc(Cc2ccccc2)n1C)C(=O)NC1CC1 (stereo not given)
  0, 7, -8
14: CCCCCc1nnc(NC(=O)c2cccc(S(=O)(=O)N3CCOCC3)c2)s1
  0, -8, -17
15: C=CCOC(=O)c1ccccc1C(=O)OCC=C
  -3, 6, -20

The last two entries of the section before lead into the next:
The line under a structure holds: MT1-MMP act inh, MT1-MMP act inh RFP, Yeast UUG start
14: CCCCCc1nnc(NC(=O)c2cccc(S(=O)(=O)N3CCOCC3)c2)s1
  0, -8, -17
15: C=CCOC(=O)c1ccccc1C(=O)OCC=C
  -3, 6, -20
16: CCCCCCCCNCCS(=O)(=O)NCc1ccccc1
  3, 1, -4
17: O=[N+]([O-])c1ccc(O)c(C=NN2CCCCC2)c1
  4, 2, -14
18: Cc1ccc(C)c(OCCC(=O)NNC(=O)c2cc(C)oc2C)c1
  -1, 0, -16
19: CCOC(=O)[C@H](C)N1[C@H](C)[C@H](c2ccccc2)Oc2ccc(Cl)cc2S1(=O)=O
  -2, -7, -18
20: O=C(Nc1ccccc1Cl)C1CC(=O)N(Cc2ccco2)C1 (stereo not given)
  0, 1, -37
21: CCOC(=O)C1(C)CCN1C(=O)c1csnn1 (stereo not given)
  -3, 4, -19
22: CCN(C(=O)COC(=O)CCC(=O)c1ccc(C)cc1)c1c(N)n(Cc2ccccc2)c(=O)[nH]c1=O
  0, -1, -10
23: COC(=O)c1ccc2nc(-c3ccc(F)cc3)c(Cc3ccsc3)n2c1
  -3, -6, 3
24: CN(C(=O)c1cccc(S(=O)(=O)N2CCCC2)c1)C1CCCCC1
  0, 1, -6
25: O=S(=O)(Nc1ccccc1OC(F)F)c1ccc(S(=O)(=O)N2CCCC2)cc1
  -2, -6, -3
26: CC(C)(C)OC(=O)N1CCC[C@H]1C(=O)OCC(=O)Nc1cc(S(C)(=O)=O)ccc1Cl
  -2, 3, 4
27: O=S1(=O)CC(N2CCN(CCO)CC2)CN1Cc1cn(Cc2ccccc2C(F)(F)F)nn1 (stereo not given)
  3, 7, 1
28: O=C(COC(=O)Cc1ccccc1F)Nc1ccccc1[N+](=O)[O-]
  -1, -1, -2
29: Cc1cccc(OCCCC(=O)NNC(=O)c2ccncc2)c1
  2, 4, -24
30: COc1cc(C(=O)NNC(=O)CSc2nnc3ccccn23)cc(OC)c1OC
  0, 2, -22

Continued, overlapping the part above by 6 compounds.
The line under a structure holds: MT1-MMP act inh, MT1-MMP act inh RFP, Yeast UUG start
25: O=S(=O)(Nc1ccccc1OC(F)F)c1ccc(S(=O)(=O)N2CCCC2)cc1
  -2, -6, -3
26: CC(C)(C)OC(=O)N1CCC[C@H]1C(=O)OCC(=O)Nc1cc(S(C)(=O)=O)ccc1Cl
  -2, 3, 4
27: O=S1(=O)CC(N2CCN(CCO)CC2)CN1Cc1cn(Cc2ccccc2C(F)(F)F)nn1 (stereo not given)
  3, 7, 1
28: O=C(COC(=O)Cc1ccccc1F)Nc1ccccc1[N+](=O)[O-]
  -1, -1, -2
29: Cc1cccc(OCCCC(=O)NNC(=O)c2ccncc2)c1
  2, 4, -24
30: COc1cc(C(=O)NNC(=O)CSc2nnc3ccccn23)cc(OC)c1OC
  0, 2, -22
31: COc1ccc(NC(=O)c2ccc(OCC3CCCO3)cc2)cc1OC (stereo not given)
  -3, -3, -18
32: O=C(C1CCCN1S(=O)(=O)c1ccc(Cl)cc1)N1CCN(c2ccccc2)CC1 (stereo not given)
  1, 0, -5
33: CNc1ccc(C(=O)OCC(=O)Nc2ccnn2C(C)C)cc1[N+](=O)[O-]
  -1, 0, -14
34: CCNC(=O)C1(C)CCCN(Cc2cccc(Oc3ccccc3)c2)C1 (stereo not given)
  0, 0, -10
35: CC(=O)Nc1ccc(S(=O)(=O)NCC(=O)N2CCN(S(=O)(=O)c3cccs3)CC2)cc1
  1, -4, -2
36: CCN(CC)S(=O)(=O)c1ccc(Cl)c(C(=O)NNC(=O)c2csc(N3CCOCC3)n2)c1
  -3, -2, -17
37: O=C(Nc1cccc([N+](=O)[O-])c1)NN1CCCCCC1
  -4, -13, -10
38: CCOc1ccc(C(=O)Nc2ccc(N3CCN(C(=O)c4ccco4)CC3)cc2)cc1Br
  -1, -4, -15
39: CC(C)(C)NC(=O)C(c1ccc(-c2ccccc2)cc1)N(C[C@H]1CC[C@@H]([C@@H]2CC[C@H](CO)O2)O1)C(=O)c1ccc(-c2ccccc2)cc1 (stereo not given in full)
  -21, -24, -7
40: C#CCN(C[C@@H]1[C@@H](OC(=O)NCc2ccccc2)[C@@H](OC(=O)NCc2ccccc2)Cn2c(=O)n(CCCCCC)c(=O)n21)S(=O)(=O)c1ccc(C)cc1
  3, -4, -16
41: CC1(C)Cc2cccc(OCC(=O)OCc3nnc(-c4ccccc4)o3)c2O1
  1, 4, 6
42: C[C@H]1CN([C@@H](C)CO)C(=O)CCCn2nncc2CO[C@@H]1CN(C)Cc1cccc(C(F)(F)F)c1
  1, 0, -17&21
43: CC(=O)Nc1cccc(-c2ccnc3c2CC(C)(C(=O)Nc2ccc(C(C)C)cc2)O3)c1 (stereo not given)
  5, -10, 9
44: COc1ccc(C2CC(C(C)(C)C)=NN2c2ccc(S(N)(=O)=O)cc2)cc1 (stereo not given)
  -1, 2, -18
45: COc1ccc([C@@H]2CC(=O)c3c(O)cc(O[C@@H]4OC(CO[C@@H]5OC(C)[C@H](O)[C@@H](O)[C@H]5O)[C@@H](O)[C@H](O)[C@H]4O)cc3O2)cc1O (stereo not given in full)
  2, 6, -9
46: Cc1ccc(OCC(=O)Nc2cc(S(=O)(=O)N3CCOCC3)ccc2N2CCCC2)cc1
  5, -1, -11
47: Cc1ccc(S(=O)(=O)N2[C@H](c3cccc(Cl)c3)CC(=O)[C@@H]3CN(S(=O)(=O)c4ccccc4C)[C@H](c4ccc(Cl)cc4)C[C@@H]32)cc1
  10, -24, -36
48: CC(C)C(=O)N1CCCC1(C)C(=O)Nc1ccccc1 (stereo not given)
  -2, 0, -21
49: COc1ccccc1C(=O)NC(CCSC)C(=O)NCc1ccncc1 (stereo not given)
  4, 5, -15
50: C[C@@H]1CN([C@@H](C)CO)C(=O)CCCn2nncc2CO[C@@H]1CN(C)S(=O)(=O)c1ccc(F)cc1
  3, 6, -9&-4
51: OC(CSc1ccccc1)CN1CCN(c2ccc(Cl)cc2)CC1 (stereo not given)
  1, -2, -20
52: CCN(CC)S(=O)(=O)c1ccc(C)c(NC(=O)COC(=O)CCC(=O)c2cccs2)c1
  2, 6, 16
53: CC(C)(NC(=O)N1CCOCC1)c1cccc(C(C)(C)NC(=O)N2CCOCC2)c1
  9, 1, -8
54: Cc1nn(CC(=O)OCC(=O)c2ccc(OC(F)F)cc2)c(C)c1[N+](=O)[O-]
  -1, 3, -19
55: C=CC(=O)Nc1cccc(CN2C(=O)N(c3cc(OC)cc(OC)c3)Cc3cnc(NCCCCN(CC)CC)nc32)c1
  0, 6, 3
56: CC1C(=O)N(Cc2cn(CCC3OCCO3)nn2)CCS(=O)(=O)N1Cc1ccc(-c2ccccc2)cc1 (stereo not given)
  0, -2, -17
57: CCN1C(=O)[C@H]2[C@@H](c3ccc(C(F)(F)F)cc3)N[C@]3(CCCN(Cc4ccc(C(F)(F)F)cc4)C3=O)[C@H]2C1=O
  18, -6, 0
58: CC(=O)c1cccc(OCC(=O)NC2CCCCCC2)c1
  -3, 3, -2
59: CN1OC[C@@H]2CN[C@H](c3ccc(-c4cc5ccccc5o4)cc3)C[C@@H]21
  6, 0, -73
60: Cc1cc(C)cc(OCC(=O)OCc2cc([N+](=O)[O-])cc3c2OCOC3)c1
  5, 5, -6
61: CC1CCCCC1NC(=O)c1cc(S(=O)(=O)N2CCCCC2)ccc1N1CCOCC1 (stereo not given)
  -1, 7, -13
62: COc1ccc(C(=O)COC(=O)c2cnc(C)cn2)cc1OC
  0, 4, -25
63: CCCc1nnc(NC(=O)c2ccc(S(=O)(=O)N(C)c3ccccc3OC)cc2)s1
  0, -4, -14
64: Nc1c(N(Cc2ccccc2)C(=O)COc2ccc([N+](=O)[O-])cc2)c(=O)[nH]c(=O)n1Cc1ccccc1
  0, 5, -4
65: CCCN(CC(=O)Nc1ccc(F)c(F)c1F)C(=O)c1cc(S(=O)(=O)N(C)C)ccc1N1CCCC1
  -1, 4, 8
66: O=C(NC1CC1)c1cccc(NC(=O)C2CCN(S(=O)(=O)c3cccc(C(F)(F)F)c3)CC2)c1
  0, -4, 2
67: O=C(NNc1nc(N2CCCC2)nc(N2CCCC2)n1)c1ccccc1
  -1, -1, -17
68: CNC(=O)c1ccc(NC(=O)C2CCN(S(=O)(=O)c3cccc(C(F)(F)F)c3)CC2)cc1
  -1, 1, 2
69: COC(=O)c1c(C)[nH]c(C(=O)C(C)OC(=O)C2CC2)c1C (stereo not given)
  5, 8, -4
70: CCCCN(C(=O)c1ccc(N2CCCC2=O)cc1)c1c(N)n(CC(C)C)c(=O)[nH]c1=O
  -1, 2, -1
71: COc1ccc(NC(=O)C2(C)CCCN(C(C)=O)C2)cc1F (stereo not given)
  3, 0, 1
72: COc1cc(C#N)ccc1OCC(=O)NCCC1=CCCCC1
  -3, -4, -11
73: Cc1cccc(C)c1OCc1cn(CC(=O)c2ccc(O)cc2)nn1
  2, 6, 64
74: CN(CC(=O)Nc1ccc(F)cc1)CC(=O)N1CCc2ccccc21
  5, 2, -9
75: COc1ccc(OC)c(NC(=O)CN2C(=O)C(=O)N(Cc3ccccc3)C2=O)c1
  4, 5, 16
76: COc1ccc(N2CCN(C(=O)COC(=O)c3nc(Cl)ccc3Cl)CC2)cc1
  -3, -1, -9

Profiles as entered above.
Entry for CCCN(CC(=O)Nc1ccc(F)c(F)c1F)C(=O)c1cc(S(=O)(=O)N(C)C)ccc1N1CCCC1 → MT1-MMP act inh: -1; MT1-MMP act inh RFP: 4; Yeast UUG start: 8
Entry for CN(CC(=O)Nc1ccc(F)cc1)CC(=O)N1CCc2ccccc21 → MT1-MMP act inh: 5; MT1-MMP act inh RFP: 2; Yeast UUG start: -9

Assay outcomes as filed in PubChem.

Only part of the results is shown. The share of hits here may be higher or lower than overall.
